# Screening results (PubChem)
# MT1-MMP reporter – MT1-MMP gene expression reporter suppression – cell-based, luciferase reporter, luminescence (AID 618); calls from a first round at 10 µM; hits with a dose series show EC50 in µM; MT1-MMP promoter luciferase reporter cells, luminescence; hit rate 0.62% among 87,000;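 active = over half of the reporter light lost at 10 µM or EC50 under 50 µM; inactive = the rest and hits that failed the dose series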;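 also: actives suppress MT1-MMP promoter-driven transcription so potencies describe inhibitors; HT1080 fibrosarcoma cells; overnight exposure; toxic or luciferase-blocking compounds were not removed from the actives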
# WNV NS2B-NS3 inh – blocks West Nile virus NS2B-NS3 protease activity. P06935. AID 577. hit rate 0.18% among 65,000. z-score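 (tested at a level between 10 and 100 µM)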. WNV NS2B-NS3 protease, fluorogenic substrate Ex360/Em465; stronger effect = lower value;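 active = z-score at -3 or under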;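 also: score is relative to mean and spread of the compound wells of a plate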
# Target sequence (P06935 1371-1501 limits assumed): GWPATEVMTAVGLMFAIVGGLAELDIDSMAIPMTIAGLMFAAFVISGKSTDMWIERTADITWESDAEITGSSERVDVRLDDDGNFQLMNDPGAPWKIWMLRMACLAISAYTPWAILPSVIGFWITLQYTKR
# Target sequence (P06935 1502-1679 limits assumed): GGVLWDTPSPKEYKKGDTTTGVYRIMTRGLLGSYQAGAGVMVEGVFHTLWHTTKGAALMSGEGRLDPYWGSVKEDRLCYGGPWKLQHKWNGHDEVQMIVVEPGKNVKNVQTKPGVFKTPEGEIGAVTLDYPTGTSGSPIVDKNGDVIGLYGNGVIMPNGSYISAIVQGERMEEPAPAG
# Hsc70 – small molecules displacing fluorescent ligand from Hsc70 – biochemical, fluorescence polarization, primary screen (AID 568). Hsc70 fluorescence polarization, probe displacement; higher % means a stronger effect; strong numbers were not always called active. displacement, % at 20 µM, or IC50 in µM where a hit was titrated. 83,000 tested, under 10 active;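 active = displacement above 50% without optical interference and an IC50 on retest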;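 also: ATPase domain with a fluorescein-tagged ATP probe; 0% = vehicle and 100% = excess ADP; read after one hour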
# The depositor's hits bear a star; i = inactive; . = no result given; + = active, no number. Compounds were not picked by outcome (roughly 0.87% active in at least one column).
SMILES,MT1-MMP reporter,WNV NS2B-NS3 inh,Hsc70
CCCC1S/C(=N/N=C/c2ccc(OC)cc2)N(Cc2ccccc2)C1=O (centres undefined),i,.,2.6%
Cc1ccc(-c2noc(CCC(=O)NC3CCN(Cc4ccccc4)CC3)n2)cc1,i,-0.33,5.5%
CCN(CC)C(=O)CSc1nnc(-c2ccccc2)o1,i,.,-1.3%
COc1cc2ccccc2cc1C(=O)O,i,.,-6.9%
Cc1cc(C)c2nc(C(F)(F)F)c(C#N)c(N)c2c1,i,.,6.4%
C/C=C(/C(=C/C)c1ccc(O)cc1)c1ccc(O)cc1,i,-0.09,-0.9%
COc1ccc(C(=O)N(Cc2ccccc2)Cc2cc3cc4c(cc3[nH]c2=O)OCCO4)cc1,i,.,11.6%
CCOC(=O)c1sc(NC(C)=O)cc1C,i,-0.49,3.7%
N#CC(C(=O)OCc1ccccc1)c1nc2ccccc2nc1N1CCOCC1 (centres undefined),i,-1.17,-1.5%
CCC(=O)N(Cc1cc2cc(OC)ccc2[nH]c1=O)c1ccc(C)cc1C,i,0.09,0.6%
COCc1cc(=O)[nH]c(Nc2nc(C)c3ccccc3n2)n1,i,.,-8.7%
CCn1cc([N+](=O)[O-])c(C(=O)N2N=C(c3ccc4ccccc4c3)CC2c2cc(Br)ccc2O)n1 (centres undefined),i,.,1.6%
Cc1nc2ccccc2c(=O)n1NC(=O)C1CCCCC1,i,2.01,9.0%
Cc1ccc(-c2nnn(CC(=O)N(Cc3ccco3)C(C(=O)NC3CCCC3)c3cccs3)n2)o1 (centres undefined),i,.,-0.2%
CC(C)CCNC(=O)C1CCN(C(=O)N(C)C)CC1,i,-0.14,-7.1%
O=C(O)C1CC(=O)N(Cc2ccc3c(c2)OCO3)C1 (centres undefined),i,0.2,-5.3%
CCCCCCNc1cc2n(c(=O)n1)CCc1cc(OC)c(OC)cc1-2,i,1.24,0.7%
COc1ccc(NC(=O)Nc2ccc3nc(C)c(C)nc3c2)cc1,i,.,-5.2%
COc1ccc2oc(=O)c(C(=O)NCc3ccc4c(c3)OCO4)cc2c1,i,.,5.0%
CCCS(=O)(=O)N1CCCC(c2nc(-c3cccc(OC)c3)no2)C1 (centres undefined),i,0.46,-2.6%
C/C(=N\NC(=O)Cc1cccn1C)c1ccc2ccccc2c1,i,.,-0.3%
COC(=O)C1C(=O)C2=C(CC1C)NC(=O)CC2c1ccccc1 (centres undefined),i,-0.46,-0.1%
CCOc1nc(-c2ccccc2)ccc1-c1noc(COC)n1,i,-1.13,3.3%
Cc1nn(C)c(C)c1S(=O)(=O)N1CCC(C(=O)NC2CCCc3ccccc32)CC1 (centres undefined),i,0.3,1.6%
Cc1ccc(CCN2CC(C(=O)NCCCN3CCCCCC3)CC2=O)cc1 (centres undefined),i,1.53,-57.7%
O=C(Nc1ccccn1)c1ccc(COc2ccccc2Cl)o1,i,.,-2.7%
C=CCc1ccccc1OCC(CN1CCCCC1)OC(C)=O (centres undefined),i,0.36,-0.2%
COc1ccc(CNC(=O)c2noc3c2CCCC3)cc1,i,1.39,2.8%
Cc1onc(-c2c(F)cccc2Cl)c1C(=O)OCC(=O)Nc1c(C)n(C)n(-c2ccccc2)c1=O,i,-0.49,-5.7%
O=C(CSc1nnc(COc2ccccc2)n1-c1ccccc1)c1ccccc1,i,.,-1.7%

# Shown with each value named: part of the list above
> CCN(CC)C(=O)CSc1nnc(-c2ccccc2)o1
  MT1-MMP reporter: i
  WNV NS2B-NS3 inh: .
  Hsc70: -1.3%
> COc1cc2ccccc2cc1C(=O)O
  MT1-MMP reporter: i
  WNV NS2B-NS3 inh: .
  Hsc70: -6.9%
> Cc1cc(C)c2nc(C(F)(F)F)c(C#N)c(N)c2c1
  MT1-MMP reporter: i
  WNV NS2B-NS3 inh: .
  Hsc70: 6.4%

# (cont.)
SMILES,MT1-MMP reporter,WNV NS2B-NS3 inh,Hsc70
O=C1NC(c2cc3c(cc2Cl)OCO3)Oc2ccccc21 (centres undefined),i,1.1,-2.6%
Cn1c2c(c(=O)n(C)c1=O)CN(Cc1ccc(F)cc1)CN2,i,-0.05,-3.6%
Cc1ccc(S(=O)(=O)NC(C)C(=O)NC2CCCCCC2)cc1 (centres undefined),i,0.88,0.1%
CCCc1nc2ccccc2n1CCOc1ccccc1,i,.,-0.2%
CCn1c(=O)c2c(cnn2C)c2ccccc21,i,-0.57,-9.4%
O=C(O)C1CCN(c2nc(-c3ccccc3)nc3c2oc2ccccc23)CC1,i,-0.83,-1.1%
Cc1ccnc(NS(=O)(=O)c2ccc(NC(=O)C34CC5CC(CC(C5)C3)C4)cc2)n1,i,.,-8.8%
COc1ccccc1NC(=O)CSc1nnnn1C,i,-1.35,-2.5%
C=CCn1c(=O)n(CCOC)c(=O)c2sc3ccccc3c21,i,0.13,5.9%
O=C(Nc1cccc(-c2nnc(-c3ccccc3)o2)c1)C1CCCO1 (centres undefined),i,-0.52,3.8%
N#CC1=C(SCC(=O)c2ccc(Br)cc2)NC2=C(C(=O)CCC2)C1c1ccco1 (centres undefined),i,-1.48,-0.5%
O=C(Cc1ccc2cccnc2c1)c1ccc(O)cc1O,i,0.47,1.8%
CCn1c(SC)nnc1-c1ccc(S(=O)(=O)N2CCCCC2)cc1,i,.,0.2%
CCCCn1cnc2c(cnn2-c2ccc(Cl)cc2)c1=O,i,-0.14,0.8%
CC1CCCCN1S(=O)(=O)c1ccc(S(=O)(=O)NCCc2ccncc2)cc1 (centres undefined),i,.,-5.5%
O=C(CN(c1ccc(F)cc1)S(=O)(=O)c1ccc2c(c1)OCCO2)NCc1ccccn1,i,0.12,-12.2%
CCc1ccccc1N(CC)C(=O)c1cn(C)c(=O)c2cc(OC)c(OC)cc12,i,0.1,-2.3%
CCCCOCCCNS(=O)(=O)c1ccccc1,i,-1.12,3.2%
Cc1c(C(=O)N2CC(C)OC(C)C2)sc2nc(-c3ccccc3)cn12 (centres undefined),i,0.61,-13.6%
O=C(Cc1ccsc1)NCC(c1ccco1)N1CCCCC1 (centres undefined),i,0.45,0.5%
COc1ccc(-n2cnnc2)cc1,i,0.07,-0.7%
Cn1c(NCc2cccnc2)nc2c1c(=O)n(Cc1ccccc1F)c(=O)n2C,i,-0.1,8.3%
Cc1cc(C(=O)COc2ccc(-c3nnco3)cc2)c(C)n1Cc1ccccc1,i,-0.6,-1.6%
c1ccc(Cn2nnnc2C(c2cccs2)N2CCSCC2)cc1 (centres undefined),i,0.25,1.2%
c1ccc2c(c1)nc(N1CCN(C3CCCCC3)CC1)c1nnnn12,i,-0.75,14.0%
COC(=O)CSc1nnc(C)c(=O)[nH]1,i,-0.57,3.8%
O=C(Nc1nccs1)C1CCN(S(=O)(=O)c2ccc3c(c2)OCCCO3)CC1,i,-1.46,7.0%
Cc1oc2cc(O)ccc2c(=O)c1N1C(=O)c2ccccc2C1=O,i,-0.43,2.3%
Cc1cc(C(=O)O)c(CSCc2cc(C(=O)O)oc2C)o1,i,.,-1.1%
CC(C)Cn1nc(NS(=O)(=O)c2ccccc2)c2cc3ccccc3nc21,i,1.45,-7.3%
O=C(Nc1cccc2c1[nH]c1ccccc12)C(F)(F)F,i,.,-3.7%
CCCNS(=O)(=O)c1ccc(OCC(=O)NCCCOC)cc1,i,-0.64,-6.2%
CCC(=O)N1CCN(c2ccc(NC(=O)c3ccc4c(c3)OCO4)cc2)CC1,i,-0.02,-1.6%
COc1cc2ccccc2cc1C(=O)Nc1cccnc1,i,1.01,1.0%
COc1ccc(NCc2nnc(SCC(=O)NCc3ccccc3)n2-c2ccccc2OC)cc1,i,.,0.3%
COc1ccc(Cn2nnnc2C(c2cccnc2)N2CCN(c3ccc(O)cc3)CC2)cc1 (centres undefined),i,1.24,4.7%
O=C(C1CCCN(S(=O)(=O)c2cccnc2)C1)N1CCN(c2ccccn2)CC1 (centres undefined),i,0.27,0.7%
CSCCC(NC(=O)c1ccc(C)o1)C(=O)O (centres undefined),i,-1.39,-1.6%
NC(=O)C1CCN(C(=O)c2ccco2)CC1,i,.,-2.5%
Cc1[nH]c(=S)n(CC2CCCO2)c1C (centres undefined),i,-1.28,1.9%

# Among those listed so far, these contain an aryl thioether with sulfur outside any ring.
SMILES,MT1-MMP reporter,WNV NS2B-NS3 inh,Hsc70
CCN(CC)C(=O)CSc1nnc(-c2ccccc2)o1,i,.,-1.3%
O=C(CSc1nnc(COc2ccccc2)n1-c1ccccc1)c1ccccc1,i,.,-1.7%
COc1ccccc1NC(=O)CSc1nnnn1C,i,-1.35,-2.5%
CCn1c(SC)nnc1-c1ccc(S(=O)(=O)N2CCCCC2)cc1,i,.,0.2%
COC(=O)CSc1nnc(C)c(=O)[nH]1,i,-0.57,3.8%
COc1ccc(NCc2nnc(SCC(=O)NCc3ccccc3)n2-c2ccccc2OC)cc1,i,.,0.3%

# Following part:
SMILES,MT1-MMP reporter,WNV NS2B-NS3 inh,Hsc70
O=S(=O)(c1ccc2c(c1)nc(COc1ccc(Cl)cc1)n2CC1CCCO1)N1CCOCC1 (centres undefined),+,1.22,3.4%
COc1ccc(S(=O)(=O)N2CCC[C@H]2C(=O)NC2=NCCS2)cc1,i,.,2.6%
CN(CCNC(=O)c1cn(C)c2ccc(S(=O)(=O)N(C)C)cc2c1=O)CCc1ccccc1,i,0.54,-1.3%
CCC(NS(=O)(=O)c1ccc(C)cc1)C(=O)O (centres undefined),i,0.18,-2.6%
CCC(C)NC(=O)C1CCC(=O)N(c2ccc3c(c2)OCO3)C1c1ccc(OC)cc1 (centres undefined),i,0.33,-3.9%
CCCCCCC(=O)Nc1nnc(CC)s1,i,.,-0.2%
NC(=O)c1c(NC(=O)CN2CCOCC2)sc2c1CCC2,i,0.83,3.3%
COc1ccccc1CNC(=O)c1cc2c(C)nn(Cc3ccc(F)cc3)c2s1,i,.,-5.1%
COc1ccccc1C(=O)n1nc(C)cc1C,i,1.38,0.7%
COc1cccc(=O)c2c(C)oc(C)c12,i,0.81,46.9%
Cc1cc(C)c2nc(N)sc2c1,i,0.94,-1.9%
CCOc1cccc(C(=O)N(Cc2ccco2)C2CCS(=O)(=O)C2)c1 (centres undefined),i,-0.15,0.6%
CCOC(=O)Cc1csc2nc3sc(C)c(C)c3c(=O)n12,i,-0.85,-2.4%
Cc1nc2nc(-c3cccnc3)nn2c(C)c1Cl,i,0.53,-7.1%
O=C(NCCc1ccccc1)C1CC(=O)N(C2CCCCCC2)C1 (centres undefined),i,0.59,-3.0%
O=C(CN1C(=O)CNC1=O)Nc1cccc(C(F)(F)F)c1,i,-0.21,4.8%
CCc1nc(N)c(C#N)c(-c2ccc(OC)c(OC)c2)c1C,i,0.21,0.9%
Cc1ccc(C)c2[nH]c(=O)c(CN(Cc3ccc4c(c3)OCO4)Cc3nnnn3Cc3ccco3)cc12,i,-0.16,-16.8%
CC(C)Oc1cc2oc(=O)c3c(c2cc1Cl)CCC3,i,-0.29,-4.9%
COc1ccc(/C=N/N=C2/NC(=O)C(c3ccccc3)(c3ccccc3)S2)cc1,i,.,3.1%
COc1ccc(C(=O)Nc2ccc(S(=O)(=O)Nc3cc(C)nc(C)n3)cc2)c(OC)c1,i,0.38,-2.4%
CCN(CC(=O)NC1CCCC1)S(=O)(=O)c1ccc(C)cc1,i,-0.73,-1.5%
Cc1ccc(Cn2c(=O)n(Cc3ccco3)c(=O)c3ccccc32)cc1,i,-1.38,-7.0%
O=C1CCCC2=C1C(c1ccccc1)CC(=O)N2c1ccccc1 (centres undefined),i,0.28,-6.4%
O=C(Nc1cccc(F)c1)c1c(F)c(F)c(F)c(F)c1F,i,-0.7,-4.2%
CC1(C)CC(NC(=O)c2cccc3ccccc23)CC(C)(C)N1,i,.,-1.5%
Cc1ccc(C(=O)NC2CCS(=O)(=O)C2)cc1S(=O)(=O)N1CCCCC1 (centres undefined),i,0.48,0.9%
CCOC(=O)C1=C(N)n2c(s/c(=C/c3ccccc3)c2=O)=C(C(=O)OCC)C1c1ccccc1 (centres undefined),i,.,-0.5%
CCC(=NC1CC(C)(C)NC(C)(C)C1)C1=C(O)CC(C)(C)CC1=O,i,0.39,-1.1%
O=C(CSc1nc2ccccc2[nH]1)NCc1ccco1,i,-0.46,12.0%
CC(C)Cc1ccc(S(=O)(=O)N2CCN(C(=O)c3ccco3)CC2)cc1,i,0.23,1.0%
Cc1ccc(-n2c3c(cc(C(=O)Nc4cccc(C)n4)c2=O)C(=O)CCC3)cc1,i,1.75,-0.6%
Cc1cc(Cl)ccc1OCCCC(=O)NCC1CCCO1 (centres undefined),i,.,7.4%
COc1cccc(-n2nnnc2SCC(=O)Nc2nc3c(s2)CCCC3)c1,i,.,0.4%
N#Cc1cc2c(nc1SCC(=O)O)CCCC2,i,.,3.6%
Cc1nn2c(c1-c1ccccc1)N=C(c1ccco1)CC2c1ccccc1 (centres undefined),i,-0.97,-19.5%
CCOC(=O)c1cnc(SCC(=O)Nc2ccc(N3CCOCC3)c(Cl)c2)nc1N,i,.,-0.3%
c1ccc(-c2nc3c4ccccc4nc(N4CCN(c5ccccn5)CC4)n3n2)cc1,i,-0.69,-3.6%
